miR-21 FLuc – raises the signal of a miR-21 reporter. HeLa miR-21 FLuc reporter, luciferase, 48 h. Potency, µM (top dose mostly 38.3 µM), inactives show top-dose reporter change, positive = more light. 340,000 tested, under 10 active. AID 2288; active = well fitted rising curve with a large enough effect; inconclusive = small, poorly fitted or top-dose-only effect; inactive = no such curve, though single readings can be large or run the other way;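 also: % of control where 0% means no effect; miR-21 action dims this reporter so a rising signal means less miR-21 action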
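Using DMEM plus 10% FBS, HeLa miR-21-FLuc cells are incubated with test compounds (final up to about 40uM) for 48 hours; firefly luciferase signal is then imaged following reagent-mediated lysis.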
An asterisk follows results filed as active; ? = inconclusive. These rows are one share of the data (hit frequency here may not be typical).

| SMILES | miR-21 FLuc |
| --- | --- |
| CCOC(=O)c1c(NC(=O)COc2ccc(CC)cc2)sc2c1CCCC2 | -0.5% |
| Cc1cccc(C(=O)NCCc2nc3ccccc3n2CCC(C)C)c1 | ? |
| COc1ccc(-n2c(=O)c3ccc(C(=O)NCc4ccc(C)cc4)cc3n(CC(=O)Nc3ccc(C)cc3)c2=O)cc1 | -2.0% |
| Cc1nn(C)c2c1c(C(F)(F)F)cc(=O)n2C(C)C(=O)NCc1ccc(Cl)cc1 (stereo unspecified) | 0.9% |
| COc1cccc(CNC(=O)C2CCCCN2S(=O)(=O)c2ccc(F)cc2)c1 (stereo unspecified) | 2.9% |
| Cc1ccc(C(=O)Nc2ccc(F)cc2)cc1S(=O)(=O)N1CCOCC1 | 2.1% |
| COc1ccc(-n2ccn(CC(=O)NCCc3ccccc3)c(=O)c2=O)cc1OC | -2.7% |
| CCOc1ccc(CCNC(=O)c2cc(Nc3ccc(C)cc3C)nc3ccccc23)cc1OCC | -3.6% |
| CC(C)c1nc2ccc(C(=O)NCc3ccc(F)cc3)cc2o1 | -5.5% |
| Cc1nc2ccc(S(=O)(=O)CCC(=O)Nc3ccccc3C)cc2s1 | 0.3% |
| O=C(CSc1nccn1Cc1ccc(Cl)cc1)Nc1nc2ccccc2s1 | ? |
| COc1ccc2c(c1)cc1c(=O)n(CC(=O)NC3CC3)nc(C)n12 | 1.0% |
| Cc1ccc(-n2c(=O)c3c4c(sc3n(Cc3cc(=O)n5cc(Cl)ccc5n3)c2=O)CCC4)cc1C | 2.1% |
| COc1ccc(Nc2ncc(C(=O)Nc3cccc(OC)c3)c3ccccc23)cc1 | -0.8% |
| CCC(=O)N1CCc2cc(CNC(=O)c3ccccc3C)ccc21 | -27.8% |
| CCCNC(=O)c1ccc(Cn2c(SCC(N)=O)nc3ccccc3c2=O)cc1 | -24.5% |
| COC(=O)c1ccc(Cl)cc1NC(=O)N1CC2CCCN2c2ccccc21 (stereo unspecified) | 3.7% |
| Cc1cc(C)cc(OCCCn2c(-c3ccc(Cl)cc3)nc3ccccc3c2=O)c1 | -0.6% |
| COc1ccc(NC(=O)c2cc(CN3CCCC3)on2)cc1Cl | -46.1% |
| COc1ccc(N2CC(NC(=O)COc3ccccc3)CC2=O)cc1OC (stereo unspecified) | -2.7% |
| CCOC(=O)c1cnc2c(ccc3ccccc32)c1Nc1ccc(OC)c(OC)c1 | 21.8% |
| CC(=O)N(Cc1cccnc1)c1nc2ccc(F)cc2s1 | -37.9% |
| COc1ccc(C(=O)COC(=O)c2cc(-c3ccccc3)nc3c(C)cccc23)cc1 | -1.8% |
| CCOC(=O)c1cccc(NC(=O)CCCn2nc(C)c3c(C)n(-c4ccccc4)nc3c2=O)c1 | -1.2% |
| COc1cc(-c2noc(C3CC(=O)N(c4ccc5c(c4)OCCO5)C3)n2)cc(OC)c1OC (stereo unspecified) | -3.7% |

(continued)
| SMILES | miR-21 FLuc |
| --- | --- |
| CNC(=O)c1ccc(NC(=O)c2nsc3ccccc23)cc1 | -22.3% |
| Cc1cc(S(=O)(=O)Nc2cc3c(cc2N2CCOCC2)n(C)c(=O)c(=O)n3C)ccc1F | -2.6% |
| CC(C)(C)C1CCc2c(sc(NC(=O)c3noc4c3CCCC4)c2C#N)C1 (stereo unspecified) | -7.3% |
| Cc1cc(C(F)F)n2nc(C(=O)Nc3ccc(F)c(Cl)c3)nc2n1 | -11.9% |
| CCOc1ccc(C2c3[nH]c4ccccc4c3CCN2C(=O)CSc2ccccc2)cc1 (stereo unspecified) | 0.3% |
| COc1ccccc1OCC(=O)N(Cc1ccco1)Cc1ccccc1F | 1.6% |
| O=S(=O)(c1ccc(Cl)cc1)c1nc(-c2ccccc2F)oc1NCc1ccccc1 | 14.0% |
| CCc1ccc(OCC(=O)Nc2ncn[nH]2)c(Br)c1 | 22.5% |
| COc1ccccc1CNC(=O)c1ccc2nc(CCc3ccccc3)oc2c1 | 1.4% |
| Cc1ccc(N2C(=O)c3[nH]nc(-c4ccc(Cl)cc4)c3C2c2ccc(F)cc2)cc1 (stereo unspecified) | ? |
| COc1cccc(CNS(=O)(=O)c2ccc3[nH]c4c(c3c2)CCCCC4)c1 | 13.2% |
| COc1ccc(NC(=O)c2ccc3c(c2)CCN3S(=O)(=O)c2ccc(C)cc2)cc1Cl | -8.3% |
| O=C(Nc1cccc(Cl)c1)c1cnc2sc(N3CCCC3)nn2c1=O | 6.0% |
| CCC1=Nc2cc(C(=O)NCCN(CC)CC)ccc2Sc2ccccc21 | -2.6% |
| Cc1ccc(-c2nc(Cn3c(SCc4ccc(F)cc4)nc4cccnc43)c(C)o2)cc1 | 19.1% |
| CCN(C(=O)CSc1nc2ccccc2n1Cc1cc(C)ccc1C)c1ccccc1 | -4.0% |
| CCc1ccc(-n2nc3cc(C)c(NC(=O)c4ccccc4C)cc3n2)cc1 | -38.8% |
| CCOc1ccc(CCNC(=O)c2c(C)oc3ncnc(N4CCOCC4)c23)cc1 | -2.0% |
| COc1ccc(OCCn2c(C)nc3cc(C)c(C)cc32)cc1 | -12.7% |
| CC1CCC2(CC1)N=C(c1ccccc1)C(=O)N2CC(=O)Nc1ccc(F)c(Cl)c1 (stereo unspecified) | ? |
| O=C(Cn1cc(S(=O)(=O)Cc2cccc(Cl)c2)c2ccccc21)Nc1ccccc1C(F)(F)F | -2.0% |
| CC(C)(C)c1ccc(C(=O)Nc2ccccc2C(=O)OCc2cc(=O)n3ccsc3n2)cc1 | -23.5% |
| COc1cccc(CCNC(=O)c2cnc3sc(N4CCCCCC4)nn3c2=O)c1 | -8.8% |
| COc1ccc(Cl)cc1NC(=O)Cn1ccn(-c2cc(C)cc(C)c2)c(=O)c1=O | 3.5% |
| COc1ccc(C(=O)Nc2ccccc2-c2nc3ccccc3s2)cc1OC | 1.2% |

(list continues)
| SMILES | miR-21 FLuc |
| --- | --- |
| Cc1cc(NC(=O)c2ccco2)cc(-c2nc3ccccc3o2)c1O | -10.2% |
| Cc1nc2nc(NC(=O)c3ccc(F)cc3)[nH]n2c(=O)c1Cc1ccccc1 | 2.5% |
| CCN(CC)CCNC(=O)c1cc2c(=O)n(C)c3cc(Cl)ccc3c2s1 | -28.8% |
| CCOC(=O)c1c(-c2ccc(C)cc2)csc1NC(=O)c1cc(=O)c2cc(C)ccc2o1 | 0.8% |
| Cc1ccc(C2C(=O)N(C3CCCCCC3)CC(=O)N2C(C)C)cc1 (stereo unspecified) | 0.8% |
| CCOc1ccc(-n2ccnc2SCC(=O)Nc2ccc3c(c2)OCO3)cc1 | 6.2% |
| Cc1ccc(NC(=O)C2CCN(S(=O)(=O)c3ccc4[nH]c5c(c4c3)CCCCC5)CC2)cc1 | 15.0% |
| COc1cccc(NC(=O)/C(C#N)=C\c2cn(Cc3ccc(C)cc3)c3ccccc23)c1 | -1.8% |
| O=C(c1cc(-c2ccc(Br)cc2)n[nH]1)N1CCN(S(=O)(=O)c2ccc(Br)cc2)CC1 | -0.8% |
| Cc1ccc(CNC(=O)c2cccc(NC(=O)N3CCSc4ncccc43)c2)cc1 | 5.8% |
| Cc1cc(C)cc(NS(=O)(=O)c2c(C)nc3scc(C)n3c2=O)c1 | -0.2% |
| CSc1ccc(CNCc2c(C(=O)O)c(C)n(Cc3ccc(F)cc3Cl)c2C)cc1 | -1.1% |
| CCc1nn(-c2ccccc2)c2nc(-c3ccc(O)cc3)c3cc(OC)c(OC)cc3c12 | -0.2% |
| Cn1cc(-c2cc3n(n2)CCC(=O)N3CCCC(=O)NCc2ccccc2Cl)c2ccccc21 | 0.9% |
| COc1cc(CN(C(=O)c2ccc(OC(C)C)cc2)c2ccccn2)cc(OC)c1OC | ? |
| Cc1ccc(C(=O)Nc2cccc(-c3nc4ccccc4o3)c2)c(Cl)c1 | -8.0% |
| CCCc1nn2c(=O)cc(COC(=O)CNC(=O)COc3ccc(C)cc3)nc2s1 | 0.1% |
| O=C(Nc1cccc(Cl)c1Cl)c1ccc2c(c1)N(Cc1cccc(Cl)c1)C(=O)c1ccccc1S2=O (stereo unspecified) | 2.4% |
| O=C1CCSC2(C(=O)N(Cc3ccccc3)c3ccccc32)N1c1ccccc1 (stereo unspecified) | ? |
| CC1(c2ccccc2)CC(C)(C)N(C(=O)c2cccc(Cl)c2)c2ccccc21 (stereo unspecified) | 10.5% |
| CCOc1ccc(CCNC(=O)CN2CCN(Cc3ccc(F)cc3Cl)C2=O)cc1OCC | -2.1% |
| Cc1ccc(C(=O)N2CCn3c4c(c5cc(C)ccc53)CCCC42)cc1 (stereo unspecified) | 9.0% |
| CCc1ccc(NS(=O)(=O)c2ccc3[nH]cc(C(=O)NCCCOC(C)C)c(=O)c3c2)cc1 | 0.6% |
| COc1ccc2c(CNC3CCC(C)CC3)c(C(=O)O)n(Cc3ccc(F)cc3)c2c1 (stereo unspecified) | -0.8% |
| CN1C(=O)c2ccccc2Sc2ccc(NC(=O)N3CCN(c4ccc(F)cc4)CC3)cc21 | ? |

An excerpt from above in order of the miR-21 FLuc value, rising.
| SMILES | miR-21 FLuc |
| --- | --- |
| CCOc1ccc(CCNC(=O)CN2CCN(Cc3ccc(F)cc3Cl)C2=O)cc1OCC | -2.1% |
| COc1cccc(NC(=O)/C(C#N)=C\c2cn(Cc3ccc(C)cc3)c3ccccc23)c1 | -1.8% |
| CCc1nn(-c2ccccc2)c2nc(-c3ccc(O)cc3)c3cc(OC)c(OC)cc3c12 | -0.2% |
| CCOC(=O)c1c(-c2ccc(C)cc2)csc1NC(=O)c1cc(=O)c2cc(C)ccc2o1 | 0.8% |
| Cn1cc(-c2cc3n(n2)CCC(=O)N3CCCC(=O)NCc2ccccc2Cl)c2ccccc21 | 0.9% |
| Cc1ccc(CNC(=O)c2cccc(NC(=O)N3CCSc4ncccc43)c2)cc1 | 5.8% |
| Cc1ccc(NC(=O)C2CCN(S(=O)(=O)c3ccc4[nH]c5c(c4c3)CCCCC5)CC2)cc1 | 15.0% |

(continued)
SMILES | miR-21 FLuc
Cc1cccc(NC(=O)Cn2c(=O)n(CCc3ccccc3)c(=O)c3sc4ccccc4c32)c1 | -3.4%
O=C(CSc1nc(-c2ccccc2F)nc2cc(=O)[nH]n12)Nc1cccc(C(F)(F)F)c1 | -8.2%
CCOC(=O)c1cc(-c2ccc(C)cc2)n(CCC(=O)Nc2ccc(OC)c(OC)c2)c1C | 13.4%
Cc1ccc(CNc2cc(C)nc3nc(-c4cccc(C)c4)nn23)cc1 | 15.2%
O=C(c1ccc(F)cc1)c1cn(Cc2ccccc2F)c2cc3c(cc2c1=O)OCCO3 | -0.8%
CCOCCCNC(=O)c1cc(Sc2cccc(Cl)c2)nc2ccccc12 | 19.8%
Cc1nnc(N2CCC(C(=O)NCCc3ccccc3)CC2)c2nn(-c3ccccc3)c(C)c12 | -6.0%
CCOC(=O)c1ccc(NC(=O)CSc2nnc(-c3ccncc3)n2-c2ccccc2)cc1 | -0.7%
CCN(CC)CCCNc1oc(-c2ccc(OC)cc2)nc1C#N | -31.4%
COc1ccc(OCCCCn2c(-c3ccc(Cl)cc3)nc3ccccc3c2=O)cc1 | -2.4%
COc1ccc(NC(=O)c2sc3nc4c(c(-c5ccc(OC)cc5)c3c2N)C(=O)CC(C)(C)C4)cc1 | -3.4%
COc1ccc2oc(-c3ccc(C)c(NC(=O)c4sc5ccccc5c4Cl)c3)nc2c1 | -6.0%
CCOc1ccc(C2N3CC4(C(C)C)CN2CC(C(C)C)(C3)C4=O)cc1OC (stereo unspecified) | -0.3%
CCN(C(=O)CSc1nc2ccccc2c2nc(CCn3c(C)nc4ccccc43)nn12)c1cccc(C)c1 | 4.8%
O=C(Cc1ccc(NC(=O)N2CCCCc3ccccc32)cc1)Nc1ccccc1Br | 12.3%
Cc1ccc(C)c(N2CCN(C(=O)c3cn(CC(C)C)c(=O)c4c3c3ccccc3n4C)CC2)c1 | -0.9%
COc1ccc(-n2c(-c3ccccc3F)nc3c(cnn3-c3ccc(C)cc3)c2=O)cc1 | 7.6%
CCc1cccc(NC(=O)C(Cc2ccccc2)NS(=O)(=O)c2ccc3c(c2)oc(=O)n3C)c1 (stereo unspecified) | -6.5%
CC1=C(C(=O)Nc2ccccc2)C(C(C)C)n2nc(SCc3ccccc3C)nc2N1 (stereo unspecified) | -0.6%
Cc1ccc2sc(N3CCN(C(=O)CCS(=O)(=O)c4ccc(F)cc4)CC3)nc2c1C | 20.9%
O=c1cc(CN2CCN(S(=O)(=O)c3ccc(Cl)cc3)CC2)nc2sc(-c3ccccc3F)nn12 | -8.2%
COc1ccc(CNC(=O)Cn2c(=O)ccc3cc(S(=O)(=O)N4CCCC4)ccc32)cc1 | -1.0%
CCOC(=O)c1ccc(NC(=O)Nc2cccc(OCc3cc(=O)n4ccc(C)cc4n3)c2)cc1 | -6.5%
O=C(CCSc1nc(-c2ccco2)cc(C(F)(F)F)n1)Nc1cccc(O)c1 | 9.7%
CCOC(=O)C1CCCN(c2nc3c(S(=O)(=O)c4ccc(CC)cc4)nnn3c3ccsc23)C1 (stereo unspecified) | 1.2%

Two neighbouring entries already listed:
SMILES | miR-21 FLuc
O=C(c1cc(-c2ccc(Br)cc2)n[nH]1)N1CCN(S(=O)(=O)c2ccc(Br)cc2)CC1 | -0.8%
Cc1ccc(CNC(=O)c2cccc(NC(=O)N3CCSc4ncccc43)c2)cc1 | 5.8%

(cont.)
SMILES | miR-21 FLuc
CCN(CC)c1ccc(CN(C(=O)c2cc(=O)c3ccccc3o2)C2CCS(=O)(=O)C2)cc1 (stereo unspecified) | -1.9%
CCOC(=O)c1cc(-c2ccc(F)cc2)n(CC(=O)NC2CCCCC2)c1C | -4.1%
Cc1ccc(C(=O)n2nc(C)c(S(=O)(=O)N3CCOCC3)c2C)cc1C | 5.3%
CCc1cccc(C)c1NC(=O)Cn1c(=O)n(-c2cccc(C)c2)c(=O)c2c1c1cc(C)ccc1n2C | 6.0%
Cc1ccc(N2CCN(c3nc4ccc(C)cc4n4nnnc34)CC2)c(C)c1 | 0.4%
Cc1ccc2c(c1)N(C(=O)CCC(=O)NCc1ccccc1F)CC(C)O2 (stereo unspecified) | -17.9%
COc1cc(Cl)c(C)cc1NC(c1ccccc1)c1nnc(-c2ccccc2Cl)o1 (stereo unspecified) | -10.1%
Cc1ccc(NC(=O)c2c(C)oc3c2C2=NCCN2C=N3)cc1F | 1.0%
